Screens (PubChem BioAssay)
miR-21 FLuc: miR-21 reporter, rising signal. HeLa miR-21 FLuc reporter, luciferase, 48 h. Potency, µM (highest dose often 38.3 µM), for the others: top-dose reporter change, positive = more light. 340,000 tested, under 10 active. AID 2288; active = well fitted rising curve with a large enough effect; inconclusive = small, poorly fitted or top-dose-only effect; inactive = no such curve, though single readings can be large or run the other way;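 also: % of control where 0% means no effect; miR-21 action dims this reporter so a rising signal means less miR-21 action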
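HeLa cells endogenously expressing miR-21, stably carrying CMV-driven firefly luciferase with a downstream miR-21 binding site, 2000 cells/well. Titrations up to approximately 40 uM, 48 hours; luciferase luminescence read.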
GLA inh pH 4.5: alpha-galactosidase A (human) inhibition, pH 4.5; P06280; purified enzyme, 4-MU-alpha-Gal fluorescence, pH 4.5; activity change, negative = inhibition, % at 105 µM; 230,000 tested, under 10 active; AID 1467; inconclusive = small, poorly fitted or top-dose-only inhibition, or a rising curve; inactive = flat fitted curve, though single readings scatter; no compound was filed as active;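 also: 0% = full activity with enzyme and -100% = basal without enzyme; dose as in the result columns while the protocol names 77 µM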
Rango complex inh: Rango-importin beta binding inhibition; AID 540263; Potency, µM (series often up to 92.2 µM), inactives show at the highest dose inhibition of complex formation; Rango CFP/YFP FRET sensor + importin beta, 45 min; Q14974; 340,000 compounds, 0.031% hits; active = rising FRET ratio curve, often small or poorly fitted; inconclusive = mostly compound fluorescence or quenching in the first reads; inactive = flat curves in all reads;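 also: potency is read from the fitted curve at half-maximal effect; 0% = DMSO wells and 100% = buffer wells lacking importin beta; nearly all actives have a fitted effect of over 15% in size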
Target sequence (Q14974 whole entry, looked up): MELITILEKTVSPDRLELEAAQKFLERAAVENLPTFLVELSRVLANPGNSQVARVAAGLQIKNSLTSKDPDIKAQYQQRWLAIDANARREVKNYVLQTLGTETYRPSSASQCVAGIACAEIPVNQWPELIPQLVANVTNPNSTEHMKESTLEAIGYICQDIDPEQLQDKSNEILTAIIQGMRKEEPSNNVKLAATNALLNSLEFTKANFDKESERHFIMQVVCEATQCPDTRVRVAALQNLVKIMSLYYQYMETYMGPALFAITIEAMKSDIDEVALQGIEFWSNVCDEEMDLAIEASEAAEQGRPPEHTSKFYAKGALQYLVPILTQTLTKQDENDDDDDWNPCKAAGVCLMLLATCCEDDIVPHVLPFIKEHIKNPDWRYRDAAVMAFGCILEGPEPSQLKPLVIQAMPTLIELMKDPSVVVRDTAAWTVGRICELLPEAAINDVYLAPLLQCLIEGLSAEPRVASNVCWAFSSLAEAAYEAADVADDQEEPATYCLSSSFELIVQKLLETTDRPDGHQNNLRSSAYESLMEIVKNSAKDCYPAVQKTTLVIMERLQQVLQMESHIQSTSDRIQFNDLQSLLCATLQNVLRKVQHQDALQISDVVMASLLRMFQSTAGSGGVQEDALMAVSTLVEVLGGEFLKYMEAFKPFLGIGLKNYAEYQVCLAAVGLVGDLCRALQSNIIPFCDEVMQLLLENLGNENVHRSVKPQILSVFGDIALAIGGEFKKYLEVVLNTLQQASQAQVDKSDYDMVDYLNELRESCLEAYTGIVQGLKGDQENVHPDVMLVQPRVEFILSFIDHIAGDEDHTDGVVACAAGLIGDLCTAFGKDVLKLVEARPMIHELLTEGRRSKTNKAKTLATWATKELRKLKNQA
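FRET biosensor (snurportin 1 IBB flanked by EYFP and cerulean), 50 nM, with compound 5 min, then 0.125 microM importin beta in PBS, 1 mM DTT, 0.02% Tween-20, 0.1% BSA. CFP/YFP ratio read after 45 min at room temperature; pre-read flags interference.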
Rango dissoc inh: inhibitors of RanGTP-induced Rango-importin beta complex dissociation. O95149+P62826. Biochemical FRET Rango-importin beta, RanGTP-induced dissociation. Potency, µM (series often up to 46.1 µM), without a hit: at the highest dose activity change, negative = inhibition. 340,000 compounds, 0.071% hits. AID 540253; active means falling FRET ratio curve, often poorly fitted, with flat reads before Ran was added; inconclusive means other falling curves, or compound fluorescence or quenching; inactive means flat or rising ratio curve;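 also: potency is read from the fitted curve at half-maximal effect; % of control where 0% means no effect; nearly all actives have a fitted effect of over 45% in size; -100% = wells without RanGTP and RCC1; the record marks most hits as doubtful in a second field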
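Two FRET readings bracket the reaction: one 5 min after compound meets Rango–importin beta, another 45 min after RanGTP-RCC1 (0.6 uM Ran, 0.2 uM RCC1, 2 mM GTP) is added. Only the second defines inhibition.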
Active calls of the source: *; ? = inconclusive; · = no result given; & = joins results of further samples; [ ] = dose if it differs, or a comment. The list is partial; rates above refer to the full screens.

No.	miR-21 FLuc	GLA inh pH 4.5	Rango complex inh	Rango dissoc inh	SMILES
1	4%	·	-1.2%	-2%	CCc1nn(C(CC)C(=O)NCC(C)c2ccccc2)c(=O)c2cc3occc3n12 (centres undefined)
2	2%	0[21.1 µM]	0.0%	4%	COc1cccc(CN(C)CC(=O)Nc2sc3c(c2C#N)CCC3)c1
3	-1%	·	-1.0%	-7%	Cc1nc(N2CCN(c3ccccn3)CC2)c2c(C)c(C(=O)Nc3c(C)cc(Br)cc3C)sc2n1
4	-2%	-2	-0.5%	0%	Cc1c(NC(=O)C(C)N2C(=O)NC3(CCC(C)CC3)C2=O)c(=O)n(-c2ccccc2)n1C (centres undefined)
5	-2%	2	-5.6%	10%	O=C(O)c1ccccc1CSc1ncn[nH]1
6	·	·	2.2%	-4%	CCCCC(CC)COP(=O)(OCC(CC)CCCC)OCC(CC)CCCC (centres undefined)
7	-11%	5	-1.6%	-14%	CCC(C)(C)C1CCC(=NNC(=S)Nc2cccnc2)CC1 (centres undefined)
8	-5%	·	?	-6%	Cc1nnc(C)c2c(C)n(-c3ccc(Cl)c(N)c3)c(C)c12
9	-2%	-3	-0.3%	0%	COc1ccc(NC(=O)c2c([N+](=O)[O-])c(C(C)(C)C)nn2C)cc1
10	·	·	5.4%	3%	O=C(c1cc2cc(Cl)ccc2o1)N1CCCCCC1
11	0%	1	1.5%	0%	CCOC(=O)c1nnn(-c2nonc2N)c1-c1ccccc1
12	?	-7	1.3%	-4%	CCC(=C(c1ccc(OC)cc1)c1ccc(OC)cc1)c1cn(CC(O)CN2CCN(C)CC2)c2ccccc12 (centres undefined)
13	-4%	-12	4.0%	0%	Cc1noc(C)c1CSc1cc(C)c2ccccc2n1
14	3%&-23%	3	-0.4%	3%	O=C(O)CCCCn1c(SCC(=O)Nc2ccccc2C(F)(F)F)nc2ccsc2c1=O
15	-6%	·	5.4%	36%	CC1(C)Cc2c(cnn2-c2cccc(F)c2)C(NC(=O)CN2CCCC2=O)C1 (centres undefined)
16	-2%&3%	·	-1.8%	1%	CC1CCN(S(=O)(=O)c2ccc3c(c2)N(CC(=O)NCCCOC(C)C)C(=O)CO3)CC1
17	·	·	-2.2%	15%	CN(CC(=O)Nc1c(Cl)cccc1Cl)C(=O)Cc1ccc2c(c1)CCC2
18	-2%	-15	-0.7%	-1%	O=C(NNC(=O)c1sccc1-n1cccc1)Nc1ccccc1
19	1%	·	-0.9%	-3%	O=C(/C=C/c1ccccc1)NCC(=O)N/N=C/c1ccco1
20	-17%	8	?	?	CCc1ccc(NC(=O)COc2ccc(/C=C(/C#N)c3nc4ccccc4[nH]3)cc2OC)cc1
21	1%	-7	-2.7%	-11%	Cc1cccc(NS(=O)(=O)c2ccc3c(c2)Cc2cc(S(=O)(=O)Nc4cccc(C)c4C)ccc2-3)c1C
22	-1%	·	0.4%	0%	Cc1[nH]c(=O)c(C#N)c(C)c1CCC(=O)Nc1cc(S(C)(=O)=O)ccc1Cl
23	12%	-17	-1.9%	-16%	CCOC(=O)c1c(NC(=O)CSc2nncs2)sc(C)c1-c1ccccc1
24	-11%	-2	0.4%	1%	CC(=O)Nc1ccc(Oc2cc(C#N)c(C#N)cc2N2CCOCC2)cc1
25	0%	1	-3.5%	11%	CCCN(c1ccc(C(C)C)cc1)S(=O)(=O)c1c(C)noc1C
26	-6%	-2	-4.6%	0%	C=CCn1c(=O)c(C(=O)NCCc2ccccc2)c(O)c2ccccc21
27	0%	18	0.2%	28%	CCOC(=O)C1=C(N)OC2=C(C(=O)CCC2)C1c1cccnc1 (centres undefined)
28	-4%	3	-1.6%	0%	CCNC(=O)/C(=C\c1ccccc1)NC(=O)/C=C/c1ccccc1
29	-6%	7	?	16µM*	CN(C)CCNc1oc(COc2ccc(Cl)cc2Cl)nc1C#N
30	-3%	·	1.7%	10%	COc1ccc(C2C(C(=O)c3ccco3)=C(O)C(=O)N2CC2CCCO2)cc1 (centres undefined)
31	9%	?	3.9%	2%	CC(C)(C)c1ccccc1OCCCCCn1ccnc1
32	-9%	3	0.4%	0%	COc1ccc(-n2c(Cc3cccn3C)nnc2SCC(=O)N2CCC(C)CC2)cc1
33	2%	·	0.3%	-19%	CCc1cc(=O)[nH]c(SCc2cccnc2)n1
34	-1%	-10	-1.2%	11%	COc1ccc(OC)c(NS(=O)(=O)c2ccc3c(c2)CCC(=O)N3)c1
35	-5%	-1	-3.9%	23%	CCCCc1ccc(N=N/C(C(=O)Nc2ccc(NC(C)=O)cc2OC)=C(/C)O)cc1
36	-22%	10	-1.3%	2%	CCN(CC)S(=O)(=O)c1cc(NC(=O)CSc2nnc(-c3cccs3)o2)ccc1C
37	·	·	1.5%	0%	O=C(C[C@@H]1C/C=C/CCCC(=O)O[C@H](c2ccccc2)CNC1=O)N[C@H](CO)Cc1ccccc1
38	-7%	1	-1.9%	0%	O=S(=O)(c1ccc(Cl)cc1)N1CCCC1c1nc(-c2ccc(Cl)cc2)no1 (centres undefined)
39	0%	12	?	-7%	O=C(CCCc1nc(-c2ccccc2)no1)Nc1cccnc1
40	·	·	?	?	O=C1CCSc2c1ccc1ccccc21
41	25%	-4	?	-5%	COc1ccc(OCCNC(=O)c2ccccc2OCC(=O)Nc2ccc(NC(C)=O)cc2)cc1
42	-13%	·	0.2%	11%	CC(=O)Nc1ccc(NC(=O)c2c(-c3ccccc3)noc2C)cn1
43	3%	·	0.2%	-8%	CCCn1c(CN2CCN(C(C)=O)CC2)nc2cc(S(=O)(=O)N(C)C)ccc21
44	-8%	-10	·	·	Cc1ccc(OCCN2CCN(CC(O)Cn3c4ccccc4c4ccccc43)CC2)cc1 (centres undefined)
45	-1%	2	?	?	CCc1ccc(-c2cc(C(F)(F)F)n3nc(C(=O)Nc4cnn(Cc5ccccc5C)c4)cc3n2)s1
46	-12%	·	7.3%	2%	COc1ccc(CC(=O)N2CCN(c3ccccc3OC)CC2)cc1
47	0%	5	0.2%	17%	O=C(Oc1ccc(/C=N/Nc2nc(N3CCCCC3)nc(N3CCCCC3)n2)cc1)c1ccco1
48	·	·	-0.3%	10%	CCC(=O)Nc1ccc(C(=O)COC(=O)C(CCSC)NC(=O)COc2ccccc2)cc1 (centres undefined)
49	-3%	·	1.5%	6%	CC(=O)c1cccc(NC(=O)/C(=C\c2ccco2)NC(=O)c2ccco2)c1
50	-2%	-3	0.1%	-1%	COc1ccc(S(=O)(=O)N(C)CC(=O)Nc2ccccc2C(F)(F)F)cc1
51	-5%	5	0.3%	17%	Cn1ncc(S(=O)(=O)Cc2ccccc2)c(Cl)c1=O
52	-1%	-9	1.4%	?	CCOc1ccccc1N(CC(=O)Nc1ccccc1C(=O)OC)S(C)(=O)=O
53	·	·	2.7%	2%	CO[C@H]1CC[C@@]2(C)[C@@H](CC[C@@H]3[C@@H]2CC[C@@]2(C)[C@H]3C[C@H](C(=O)N[C@@H](CCCN=C(N)N)C(=O)NCC(=O)N[C@@H](CC(=O)O)C(N)=O)O[C@]23CCCO3)C1
54	-1%	·	5.1%	19%	CCCCCC/C=N/Nc1nnc(Cc2ccc(OC)c(OC)c2)c(=O)[nH]1
55	·	·	-4.5%	2%	CCN(C(=O)CN1C(=O)NC2(CCCc3ccccc32)C1=O)c1ccc(F)cc1 (centres undefined)
56	7%	·	-0.4%	20%	CCN1CCN(C(C)CCc2ccccc2)CC1 (centres undefined)
57	·	·	3.1%	-11%	O=C(CCNS(=O)(=O)c1ccccc1C(F)(F)F)N1CCN(S(=O)(=O)c2cccc(Cl)c2)CC1
58	·	·	5.8%	1%	Cc1cc(C(=O)CN2C(=O)NC(CC(C)C)C2=O)c(C)n1C1CC1 (centres undefined)
59	0%	13	-2.0%	8%	CCOC(=O)c1cnc2nc(SC)nn2c1N
60	-14%	·	-0.8%	0%	O=C(CCCOc1cccc(Br)c1)NC1CCC(O)CC1 (centres undefined)

Going on with the list:
No.	miR-21 FLuc	GLA inh pH 4.5	Rango complex inh	Rango dissoc inh	SMILES
61	-3%	-1	0.0%	7%	COC(=O)C1=C(C)N(CCc2ccc(OC)c(OC)c2)C(=O)/C1=C\N(C)C
62	2%	5	3.9%	-19%	CCN(C(=O)CSc1nnc2ccccn12)C1CCS(=O)(=O)C1 (centres undefined)
63	15%	6	0.0%	0%	CCc1nn(-c2cc(Cl)ccc2OC)c2c1C(=O)CCC2
64	-23%	-5	?	?	CC(=O)Oc1c(-c2ccco2)oc2ccccc2c1=O
65	3%	-16	3.7%	0%	CCOC(=O)N1CCC(NC(=O)CCC(=O)c2ccccc2)CC1
66	-2%	-4	-1.1%	-7%	O=C(Nc1c[nH]c(=O)[nH]c1=O)c1ccc([N+](=O)[O-])cc1
67	-19%	-3	-0.8%	0%	CCOC(=O)c1ccc(Nc2nc(C)cc(=O)[nH]2)cc1
68	0%	-7	-0.6%	0%	Cn1c(CN2CCCCC2)nc2cc(NC(=O)c3ccc(F)cc3)ccc21
69	4%	-7	0.6%	-4%	COc1ccc(C2/C=C\CN(C(=O)c3ccc(C)cc3)CC(=O)N2Cc2ccc(F)cc2)cc1 (centres undefined)
70	·	·	?	0%	Cc1ccc(NC(=O)CSCC(=O)N(C)CC(=O)Nc2cccc3ccccc23)cc1
71	-20%	1	0.9%	-17%	c1ccc(-c2nnc3ccc(N4CCC5(CC4)OCCO5)nn23)cc1
72	-9%	·	?	-28%	CCn1nc(NS(=O)(=O)c2ccc(NC(C)=O)cc2)c2cc3ccc(C)cc3nc21
73	-57%	-27	5.2%	-16%	CCc1c(C(=O)OCc2ccccc2)[nH]c(C)c1C
74	-1%	-1	4.4%	3%	CC(C)CC(=O)c1c[nH]c(C(=O)NCCCn2ccnc2)c1
75	-1%	·	?	?	Cc1cccn2c(=O)c3cc(C(=O)NC4CCCC4)c(=N)n(CC4CCCO4)c3nc12 (centres undefined)
76	-61%	4	-0.5%	-6%	CC(=O)N=C(N)Sc1nc2ccccc2[nH]1
77	-1%	·	-1.4%	0%	Cc1[nH]c(C)c(S(=O)(=O)NCc2ccco2)c1C(=O)N1CCCCC1
78	-7%	3	0.9%	-15%	OC1(Cc2ccn[nH]2)CCCCC1
79	4%	0	-1.0%	-1%	CN(C)C=Nc1ncc2c([nH]c3ccccc32)c1C#N
80	·	·	-0.1%	-2%	CC(CC(=O)Nc1ccc(Cl)c(S(=O)(=O)N2CCOCC2)c1)c1ccccc1 (centres undefined)
81	-11%	-5	-1.2%	1%	COc1ccc(Cl)cc1C(=O)NCc1ccco1
82	·	·	-0.2%	18%	O=C(NC1=NCCS1)c1cccc(S(=O)(=O)N2CCOCC2)c1
83	-6%	9	0.9%	0%	COc1cccc(OC)c1C(=O)Nc1cc(C)on1
84	6%	-6	-2.6%	-20%	O=C(c1cn(-c2ccccc2)nc1-c1cccs1)N1CCN(c2ccccc2)CC1
85	?	-2	-1.4%	-2%	O=C1OCC2=C1C(c1ccc(F)cc1)c1cc3c(cc1N2)OCO3 (centres undefined)

Compounds shown so far containing a cyano group (six):
No.	miR-21 FLuc	GLA inh pH 4.5	Rango complex inh	Rango dissoc inh	SMILES
2	2%	0[21.1 µM]	0.0%	4%	COc1cccc(CN(C)CC(=O)Nc2sc3c(c2C#N)CCC3)c1
20	-17%	8	?	?	CCc1ccc(NC(=O)COc2ccc(/C=C(/C#N)c3nc4ccccc4[nH]3)cc2OC)cc1
22	-1%	·	0.4%	0%	Cc1[nH]c(=O)c(C#N)c(C)c1CCC(=O)Nc1cc(S(C)(=O)=O)ccc1Cl
24	-11%	-2	0.4%	1%	CC(=O)Nc1ccc(Oc2cc(C#N)c(C#N)cc2N2CCOCC2)cc1
29	-6%	7	?	16µM*	CN(C)CCNc1oc(COc2ccc(Cl)cc2Cl)nc1C#N
79	4%	0	-1.0%	-1%	CN(C)C=Nc1ncc2c([nH]c3ccccc32)c1C#N
